From PubChem BioAssay
Mtb growth: M. tuberculosis H37Rv growth inhibitors, H37Rv strain (AID 1626); M. tuberculosis H37Rv growth inhibition; higher % means a stronger effect; inhibition, % at 10 µM, or IC50 in µM where a hit was titrated; hit rate 0.95% among 220,000;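 active = confirmed in a dose series; inconclusive = inhibition above 80% but not taken into the dose series; inactive = below 80% or under 30% at every dose of the series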;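 also: bacteria incubated seven days before Alamar blue readout; 0% = bacteria only wells and 100% = bacteria with antibiotic wells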
RecA splice inh: Mtb RecA intein splicing inhibition. P9WHJ3. cell-free RecA intein splicing, fluorescence. inhibition, %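 (about 9 µM by stock and volumes)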. hit rate 0.75% among 290,000; in the data active = inhibition above about 30%; inconclusive = no clear call, values can overlap the other calls;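 also: 0% = vehicle wells and 100% = reference inhibitor control wells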
Target sequence (P9WHJ3 whole entry, looked up, canonical isoform): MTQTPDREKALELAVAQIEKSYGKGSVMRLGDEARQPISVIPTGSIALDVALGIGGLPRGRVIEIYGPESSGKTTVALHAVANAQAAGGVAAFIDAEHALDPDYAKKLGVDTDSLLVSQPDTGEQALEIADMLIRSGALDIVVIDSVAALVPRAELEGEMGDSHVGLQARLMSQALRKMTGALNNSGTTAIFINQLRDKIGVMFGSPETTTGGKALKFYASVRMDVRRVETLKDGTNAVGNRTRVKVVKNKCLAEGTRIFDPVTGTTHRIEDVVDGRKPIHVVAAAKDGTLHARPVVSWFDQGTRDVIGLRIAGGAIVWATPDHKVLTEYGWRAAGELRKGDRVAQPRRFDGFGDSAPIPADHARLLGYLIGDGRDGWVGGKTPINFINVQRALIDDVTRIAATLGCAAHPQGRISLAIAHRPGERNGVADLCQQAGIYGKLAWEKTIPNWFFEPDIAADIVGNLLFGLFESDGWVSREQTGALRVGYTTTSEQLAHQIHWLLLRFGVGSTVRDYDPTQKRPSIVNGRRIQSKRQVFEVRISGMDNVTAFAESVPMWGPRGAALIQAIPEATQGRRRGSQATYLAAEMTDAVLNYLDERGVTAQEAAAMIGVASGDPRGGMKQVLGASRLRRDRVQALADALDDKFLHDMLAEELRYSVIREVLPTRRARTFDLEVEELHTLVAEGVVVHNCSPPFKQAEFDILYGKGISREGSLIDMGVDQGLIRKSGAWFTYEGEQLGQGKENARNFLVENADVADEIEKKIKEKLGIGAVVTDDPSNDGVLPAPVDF
Arbovirus anti: antivirals against arbovirus infection | inhibition, % at 10 µM | arbovirus infection cell-based antiviral screen | hit rate 0.37% among 200,000;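 active = inhibition from about 30%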;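 also: bluetongue infection of BSR cells; cell survival read as ATP light after 72 h; 0% = infected wells without compound and 100% = uninfected wells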
YopH inh: YopH (Yersinia) phosphatase inhibition. fluorescence Ex485/Em525. hit rate 0.16% among 140,000. inhibition, %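 (about 10 µM by stock and volumes)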;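 active = inhibition of 50% or more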;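 also: controls were vehicle for no effect and minimum signal wells for full effect; inactives centre near -20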
Mtb bLac sens: beta-lactam sensitization of Mtb H37Rv. hit rate 0.27% among 330,000. inhibition, % at 25 µM. M. tuberculosis H37Rv growth with meropenem, percent inhibition; hits of this screen are not shown here. AID 434955;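 active = about 74% or more and at least 40 points above the plate without the antibiotic, then above 30% in a dose series; inconclusive = first-round hits that could not be retested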;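 also: growth measured after seven days incubation then overnight dye step; 0% = bacteria only wells and 100% = bacteria with antibiotic; twin plates without the antibiotic show which effects depend on it; some results filed as inactive read as strong as hits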
Arbovirus anti repeat: further read-out of Arbovirus anti, marked with its call; inhibition, %; measured here: 10K subset replicate screen; many hits read low in the repeat;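 first of two repeat runs on a subset; 0% = infected and 100% = uninfected wells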
The depositor's hits bear a star; ? = inconclusive; nt = not tested or not shown. Only part of the results is shown; rates above refer to the full screens.

SMILES	Mtb growth	RecA splice inh	Arbovirus anti	YopH inh	Mtb bLac sens	others
CCCN1CN(Cc2ccco2)c2nc3ccccc3n2C1	-46%	nt	5	-76	3
O=C(CSc1nnnn1-c1cccnc1)Nc1cccc(Cl)c1	nt	1.7	nt	nt	-4
COC(=O)c1ccc(N2CCS(=O)(=O)CC2)cc1	2%	-5.5	-1	nt	0
COc1ccc(CCC(=O)NCCS(=O)(=O)N2CCN(c3ccc(F)cc3)CC2)cc1	nt	0.4	nt	nt	-15
COc1cccc2sc(=NC(=O)CS(=O)(=O)c3ccc(Cl)cc3)n(C)c12	nt	2.3	nt	nt	98
COc1ccc(C(=O)NNC2=CC(=O)CC(C)(C)C2)cc1	11%	0.0	6	-10	1
CC1CC(=O)c2cnc(Nc3cccc(C(F)(F)F)c3)nc2C1 (configuration not stated)	3%	nt	2	-27	-5
COc1ccc(N2C(S)=C(C#N)C(=O)NC2c2ccco2)cc1 (configuration not stated)	-2%	-0.3	-4	-34	47
O=C(Nc1ccc2oc(-c3ccc(Cl)c(Cl)c3)nc2c1)c1ncn[nH]1	-1%	0.5	-5	6	nt
O=S1(=O)CCN(C(CCO)c2cccc(C(F)(F)F)c2)CC1 (configuration not stated)	2%	2.0	12	nt	0
O=C(Nc1ccc(NC(=O)c2ccccc2Cl)cc1)c1cccnc1	nt	1.5	nt	nt	2
O=C(O)CCCCc1nc2ccccc2s1	-1%	0.7	11	-22	-1
O=C(NCC1CCCO1)c1ccc(Cl)c(S(=O)(=O)Nc2ccccc2)c1 (configuration not stated)	nt	-7.2	nt	nt	-4
COc1ccc(C(CC(=O)Nc2ccc(Cl)cc2F)NC(=O)C(F)(F)F)cc1 (configuration not stated)	-9%	1.8	3	-33	7
C=CCN(C(=O)CNC(=O)c1cccs1)C(C(=O)NC(C)(C)C)c1ccccc1 (configuration not stated)	-1%	-2.2	-3	nt	0
O=C1CCC(C(=O)N2CCCCCC2)CN1CCc1ccc(Cl)cc1 (configuration not stated)	nt	-0.7	nt	nt	-4
CC1CCC(NS(=O)(=O)c2cccc3nsnc23)CC1 (configuration not stated)	nt	0.8	nt	nt	-3
c1cc(CNCCCN2CCOCC2)ccn1	2%	3.9	22	-8	-16
C[C@@H]1ON(C2CCCCC2)[C@H]2c3nc4ccccc4n3C[C@@H]12	nt	1.3	nt	nt	-2
Cc1ccc(C(=O)C(C)Oc2cccc(NC(=O)c3ccco3)c2)cc1 (configuration not stated)	10%	-3.4	1	-33	6
CCC1(CC)Cc2ccccc2-c2nc(CN(C)C)[nH]c(=O)c21	nt	1.6	nt	nt	96
CN1C(=O)C(C2(C#N)CCCCC2)C(=O)N(C)C1=O	-9%	-3.4	6	-5	-9
O=C(CS(=O)(=O)c1ccccc1)N1CCCCC1	nt	0.0	nt	nt	-6
COC(=O)/C=c1\sc2ncnn2c1=O	-9%	2.9	1	-11	8
C/C(=N\Nc1ccccn1)c1ccc2c(c1)OCO2	8%	nt	7	nt	-5
CC1CCCN(CC(=O)Nc2cc(Cl)ccc2Oc2ccccc2)C1 (configuration not stated)	nt	15	nt	nt	14
COc1cccc(NC(=O)Nc2nnc(Cc3ccc(F)cc3)s2)c1	nt	-1.3	nt	nt	5
COc1ccccc1NS(=O)(=O)c1ccc(O)c(C(=O)OCC(=O)c2ccc(Cl)cc2Cl)c1	2%	5.6	-1	nt	-7
Cn1nc(C(=O)Nc2nc(-c3ccc(F)cc3)cs2)ccc1=O	nt	-2.3	nt	nt	1
CCN(C(=O)c1ccc(C(C)(C)C)cc1)c1nnc(Cn2nnc3ccccc32)s1	24%	19	-16	-15	9
O=c1nc2ccccc2c2n1CC(CN1CCN(c3ccccc3F)CC1)N2 (configuration not stated)	-4%	-2.6	2	-4	-14
COc1ccc(S(=O)(=O)N2CCC(n3cnc4ccccc43)CC2)cc1	nt	0.5	nt	nt	4
O=C(O)c1ccc(/C=C2\SC(=Nc3ccccc3)N(c3ccccc3)C2=O)cc1	3%	1.7	5	nt	9
O=C1COc2ccc(C(=O)COC(=O)CNC(=O)c3ccco3)cc2N1	-16%	nt	17	nt	3
CCOC(=O)c1ccc(NC(=O)Cn2cnc(S(=O)(=O)N3CCCC3)c2)cc1	nt	-1.7	nt	nt	-7
Cc1csc2nc(CNC(=O)C3CC=CCC3C(=O)O)cn12 (configuration not stated)	-3%	-0.7	0	-26	-5	Arbovirus anti repeat=5
C/C(=N/NC(=O)c1ccc(C)s1)c1cccc(NC(=O)COc2ccc(Cl)cc2C)c1	0%	-7.3	-14	-9	3
CNC(=O)c1cc2ccc(OC)cc2oc1=O	4%	-1.5	-1	-10	-5
O=C1/C(=C/c2ccco2)SC(=S)N1c1cccnc1	-4%	-3.2	nt	nt	nt
Cc1ccc(S(=O)(=O)N2CC(=NO)C2)cc1	6%	-0.1	-7	2	-1
Cn1c(CSCc2ccc(F)cc2)nnc1SCC(=O)Nc1nccs1	-4%	-6.6	13	-22	-5
O=C(CN1CCCC1)NN=C(c1ccccc1)c1ccccc1	1%	-3.2	3	nt	0
Cc1cccc(C)c1NC1=NCCCCC1	4%	-2.6	3	nt	4
CSCC(=O)N1CCCC(N2CCN(c3ccc(F)cc3)CC2)C1 (configuration not stated)	nt	-2.7	nt	nt	-3
CC1=C/C(=N\NC(=S)Nc2cccnc2)CC(C)(C)C1	?	6.0	4	nt	nt
Cc1ccc(NC(=O)COc2ncnc3c(Cl)cc(Cl)cc23)cc1[N+](=O)[O-]	6%	3.4	5	5	-1
NC(=O)CCS(=O)(=O)c1ccc(Cl)cc1	2%	-0.2	-9	nt	0
CC1=NN(C(N)=S)C(=O)C1N=Nc1ccc(Cl)cc1Cl (configuration not stated)	nt	4.4	nt	nt	53
CCn1c(O)c(/C(C)=N/N2CCCCC2c2cccnc2)c(=O)[nH]c1=S (configuration not stated)	8%	-7.3	-2	-2	?
Cc1cc(=O)n2c(-c3ccccc3C)n[nH]c2n1	-4%	-1.4	4	-47	nt
Cc1cccc(C)c1NC(=O)c1cc(S(=O)(=O)N2CCc3ccccc32)cn1C	nt	-2.5	nt	nt	-2
COc1ccc(C(=O)Nc2cccc(OC)c2)cc1	-7%	-3.1	-1	-9	-4
CC1(C)CCC(C)(C)NC(=S)N1	-2%	0.3	13	-11	-3
CCOc1ccc(-n2c(N)c(C(=O)NCc3cccnc3)sc2=S)cc1	6%	-0.5	5	4	-4
N/C(Cc1ccc([N+](=O)[O-])cc1)=N\OC(=O)C(c1ccccc1)c1ccccc1	2%	nt	2	-30	9
Cc1nn(-c2ccccc2)c(C)c1/C=N/N1CCN(c2ccccn2)CC1	2%	-0.3	-6	nt	-1
COCCN1C(=O)c2ccc(C(=O)Nc3cccnc3)cc2C1=O	nt	-0.5	nt	nt	3
Cc1cccc(NC(=O)/C(C#N)=C/c2cn(CC(=O)NCc3ccco3)c3ccccc23)c1	-2%	nt	-21	2	2
Cc1ccc(NC(=S)NNC(=O)Cn2nc(C(F)F)cc2C(F)F)cc1	14%	-5.3	2	-9	-3
O=C(CCCn1c(=O)[nH]c2cc(Cl)ccc2c1=O)NC1CCCCCC1	1%	3.7	3	-17	?

Of the compounds above, these have an NH in an aromatic ring:
SMILES	Mtb growth	RecA splice inh	Arbovirus anti	YopH inh	Mtb bLac sens	others
O=C(Nc1ccc2oc(-c3ccc(Cl)c(Cl)c3)nc2c1)c1ncn[nH]1	-1%	0.5	-5	6	nt
CCC1(CC)Cc2ccccc2-c2nc(CN(C)C)[nH]c(=O)c21	nt	1.6	nt	nt	96
CCn1c(O)c(/C(C)=N/N2CCCCC2c2cccnc2)c(=O)[nH]c1=S (configuration not stated)	8%	-7.3	-2	-2	?
Cc1cc(=O)n2c(-c3ccccc3C)n[nH]c2n1	-4%	-1.4	4	-47	nt
O=C(CCCn1c(=O)[nH]c2cc(Cl)ccc2c1=O)NC1CCCCCC1	1%	3.7	3	-17	?

Back to the main list, repeating the 2 entries before the break.
SMILES	Mtb growth	RecA splice inh	Arbovirus anti	YopH inh	Mtb bLac sens	others
Cc1ccc(NC(=S)NNC(=O)Cn2nc(C(F)F)cc2C(F)F)cc1	14%	-5.3	2	-9	-3
O=C(CCCn1c(=O)[nH]c2cc(Cl)ccc2c1=O)NC1CCCCCC1	1%	3.7	3	-17	?
Cc1cc(Br)ccc1SCC(=O)OCC(=O)NCc1ccco1	-2%	-0.1	nt	nt	-7
CCOc1ccc(NC(=O)CCN2CCN(S(=O)(=O)c3ccc(Cl)cc3)CC2)cc1	2%	2.5	1	2	-1
O=C(COC(=O)Cc1ccc(S(=O)(=O)N2CCOCC2)s1)NCc1ccc(Cl)cc1	-5%	1.2	3	-21	-1
COc1ccc(N2C(=O)CC(N3CCCCC3)C2=O)cc1 (configuration not stated)	2%	-1.6	7	nt	2
COCCCNC(=O)CN(c1ccc(Cl)c(Cl)c1)S(C)(=O)=O	-7%	1.0	-1	-30	1	Arbovirus anti repeat=2
CN1CCN(C(=O)N2c3ccccc3CCc3ccccc32)CC1	-4%	-3.1	-1	nt	-6
COc1ccccc1OCCOCCOc1ccc(C)cc1Br	15%	9.5	-1	-29	-1
O=C(Nc1cccc(CNCCc2c[nH]c3ccccc23)c1)c1ccccc1Cl	nt	0.1	nt	nt	11
Clc1ccc(OCc2nn3c(-c4ccccc4)nnc3s2)c(Cl)c1	8%	2.5	6	4	?
O=C(CNC(=O)c1ccc(Br)o1)NCC1CCCO1 (configuration not stated)	nt	-1.4	nt	nt	-7
COc1ccc(C(=O)NCC(=O)OC2CCCCC2=O)cc1 (configuration not stated)	-1%	-1.5	-2	-28	-10
COc1ccc(OC)c(S(=O)(=O)NCc2csc(-c3ccccc3)n2)c1	12%	-0.2	7	-8	7
COc1cccc(/C=N/N=C(\N)c2nonc2N)c1O	6%	-6.4	-8	nt	31
COC(=O)CN(Cc1ccccc1)S(=O)(=O)c1ccc(OC)c(OC)c1	4%	2.2	0	-33	4
O=S(=O)(c1ccccc1)N1CCN(c2nnc(-c3ccccc3)c3ccccc23)CC1	1%	4.4	nt	nt	-10
Cc1cc(C(=O)CN2CCCC(C)C2)c(C)n1-c1ccc(F)cc1 (configuration not stated)	-5%	0.5	-14	-14	-2
CCCC(C)NC(=O)COc1ccc(S(=O)(=O)N2CCCC2)cc1 (configuration not stated)	-3%	2.6	12	nt	-7
CCCS(=O)(=O)N1CCCC(C(=O)NCCCN2CCN(c3cccc(Cl)c3)CC2)C1 (configuration not stated)	nt	-0.1	-1	-22	nt
O=C(O)c1ccc(NS(=O)(=O)c2cccc3nsnc23)cc1	-5%	2.3	-6	-58	-13
Cc1ccccc1OCCC(=O)OCC(=O)N1CCN(S(=O)(=O)c2ccc(Cl)cc2)CC1	nt	-5.1	nt	nt	-11
Cc1ccc2c(C(=O)CCl)c(C)[nH]c2c1	?	7.5	nt	nt	100
N/C(=N\OC(=O)COc1ccc(Br)cc1Cl)c1ccccn1	11%	-0.3	-22	-17	-2
O=C(Cn1cnc2c(nnn2Cc2ccccc2)c1=O)NCC1CCCO1 (configuration not stated)	-6%	9.6	2	-30	5
CCOc1ccc(CC2CC(=O)NC2=O)cc1 (configuration not stated)	2%	-1.8	7	-2	1
O=C(NC1CCCCCCC1)c1ccccc1O	-2%	4.9	12	-24	7
CC(C)(C)NC(=O)CN(C(=O)CNS(=O)(=O)c1ccc(Cl)cc1)c1ccc2c(c1)OCCO2	nt	0.2	nt	nt	1
Cc1ccc(NS(=O)(=O)Cc2ccccc2)nc1	3%	0.8	7	nt	3
CCN1C(=O)NC2=C(C(=O)c3ccccc32)C1c1ccccc1F (configuration not stated)	-8%	-3.2	-12	-7	-3
CCOC(=O)N1CCN(C(=O)CSc2ccc(C(F)(F)F)cc2[N+](=O)[O-])CC1	nt	-0.8	nt	nt	7
COc1cc(C(=O)N/N=C(\Cc2ncc[nH]2)c2ccccc2)cc(OC)c1OC	11%	-3.4	-25	nt	-11

Random excerpt: seven records from the list.
SMILES	Mtb growth	RecA splice inh	Arbovirus anti	YopH inh	Mtb bLac sens	others
CCOc1ccc(CC2CC(=O)NC2=O)cc1 (configuration not stated)	2%	-1.8	7	-2	1
Cc1ccc(NS(=O)(=O)Cc2ccccc2)nc1	3%	0.8	7	nt	3
CCOC(=O)N1CCN(C(=O)CSc2ccc(C(F)(F)F)cc2[N+](=O)[O-])CC1	nt	-0.8	nt	nt	7
N/C(=N\OC(=O)COc1ccc(Br)cc1Cl)c1ccccn1	11%	-0.3	-22	-17	-2
Cc1ccc2c(C(=O)CCl)c(C)[nH]c2c1	?	7.5	nt	nt	100
O=C(NC1CCCCCCC1)c1ccccc1O	-2%	4.9	12	-24	7
O=C(Cn1cnc2c(nnn2Cc2ccccc2)c1=O)NCC1CCCO1 (configuration not stated)	-6%	9.6	2	-30	5
